eIF4H FP inh = inhibitors of RNA binding by human eIF4H. Q15056. eIF4H fluorescence polarization binding assay. inhibition, % at 35 µM. hit rate 0.94% among 290,000. AID 2012;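 active = 50% or more with normal probe brightness, or confirmed in later tests; inconclusive = above 50% with abnormal brightness, or retests that disagree; inactive = below 50% or failed in later tests; about a fifth of its hits are not listed in these tables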;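 note: calls also rest on retests at 20 µM and on dose response follow-up; 0% = protein and probe with vehicle and 100% = probe without protein; strong numbers were not always called active; many hits fall short of the cut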
Yeast UUG start = yeast start codon fidelity modulation; S. cerevisiae UUG-firefly luciferase reporter, luminescence/redox ratio; activity score, % at 18.7 µM; hit rate 0.13% among 350,000;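 active = replicate mean at a twofold rise or more, about +100% in these data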;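 note: firefly luciferase made from a UUG start codon reports start codon fidelity; reporter light over untreated wells divided by growth signal over untreated wells; some hits fall short of that in this replicate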
PABP polyA inh = PABP-poly(A) binding inhibition; inhibition, % at 35 µM; hit rate 1% among 290,000; P11940; PABP-poly(A) RNA binding, fluorescence polarization; AID 2014;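 active = 50% or more with normal probe brightness, or confirmed in later tests; inconclusive = above 50% with abnormal brightness, or retests that disagree; inactive = below 50% or failed in later tests; about a fifth of its hits are not listed in these tables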;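 note: calls also rest on retests at 20 µM and on dose response follow-up; controls were probe without protein and protein plus probe with vehicle; some compounds called inactive have numbers as strong as hits; many hits fall short of the cut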
Target sequence (P11940 whole entry, looked up): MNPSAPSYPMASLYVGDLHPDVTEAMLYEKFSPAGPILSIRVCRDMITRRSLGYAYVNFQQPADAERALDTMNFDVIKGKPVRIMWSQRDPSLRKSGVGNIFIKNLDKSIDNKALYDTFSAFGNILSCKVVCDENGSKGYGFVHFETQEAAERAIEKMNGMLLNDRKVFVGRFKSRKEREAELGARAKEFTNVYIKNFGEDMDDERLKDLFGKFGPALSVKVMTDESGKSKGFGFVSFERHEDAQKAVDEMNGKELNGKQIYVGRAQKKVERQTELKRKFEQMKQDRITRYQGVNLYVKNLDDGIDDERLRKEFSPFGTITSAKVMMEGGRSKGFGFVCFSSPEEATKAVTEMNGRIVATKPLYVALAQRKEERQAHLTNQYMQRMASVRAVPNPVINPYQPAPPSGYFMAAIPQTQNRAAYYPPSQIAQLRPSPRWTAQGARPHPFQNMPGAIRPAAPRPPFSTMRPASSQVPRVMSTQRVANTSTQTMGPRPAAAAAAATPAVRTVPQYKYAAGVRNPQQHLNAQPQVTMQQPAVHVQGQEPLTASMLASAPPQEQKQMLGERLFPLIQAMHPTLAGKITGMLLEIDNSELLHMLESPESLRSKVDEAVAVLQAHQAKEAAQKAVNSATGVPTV
Env fusion inh = inhibitors of HIV Env-mediated cell fusion; AID 651610; HeLa-JRFL Env/CEM21 cell fusion, luciferase; inhibition, % at 12.3 µM; hit rate 1.1% among 360,000;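 active = mean replicate inhibition score of at least 50 and every replicate individually at or above 50; inconclusive = only one of the two criteria met; inactive = mean below 50 and not all replicates reaching 50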;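 note: 0% = plate neutral controls and 100% = maraviroc near 300 nM; one replicate is shown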
CSC inhib = cancer stem cell inhibition | cancer stem cell-like cells viability, luminescence | inhibition, % at 7.5 µM | hit rate 1.1% among 300,000;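 active = mean at 75% or more and at least half the replicates too; inconclusive = mean and replicates disagree; tested in HMLE shEcad cells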;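 note: 0% = median of negative and 100% = median of positive control wells; the first replicate is given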
Rce1 inhib = inhibitors of yeast Ras-converting enzyme. Q03530. yeast membranes, quenched prenylated peptide cleavage fluorescence. calls only. hit rate 0.27% among 290,000. AID 2563;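 active = fall in fluorescence gain of 50% or more versus controls, with final raw signal at or below 3038400; inconclusive = same 50% fall but final raw signal above 3038400; inactive = fall in fluorescence gain under 50%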;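 note: plate controls were neutral control wells for no effect and wells lacking membranes for full effect; tested at 10 µM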
MT1-MMP act inh = blocks activation of human MT1-MMP. GFP/RFP ratio change, % at 20 µM. P50281. AID 651647. HT1080 RFP-PRO-GFP cells, GFP/RFP ratio fluorescence, overnight; percent of plate control window, DMSO zero. hit rate 0.061% among 360,000;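 active = GFP/RFP ratio change of at least 30% with cell ATP level not reduced by more than half and red fluorescence within 50% of control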; note: strong numbers were not always called active
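Assay system: HT1080 cells carrying an RFP-PRO-GFP reporter | Dosing: Single dose of 20 µM compound, 1% DMSO final | Incubation: Cells overnight before dosing, compound overnight, 37 °C, 5% CO2 | Evaluation: GFP/RFP fluorescence ratio | Control set: DMSO and RFP-L50D-GFP cell wells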
eIF4H FP inh retest = recorded beside eIF4H FP inh, whose call it bears; inhibition, %; compound at 20 µM; confirmation average;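 mean of two retest wells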
PABP polyA inh retest = also measured in PABP polyA inh; calls as there; inhibition, %; compound at 20 µM; confirmation repeats;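 mean of two retest wells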
MT1-MMP act inh RFP = second read-out of MT1-MMP act inh, no call of its own (marks repeat the call); RFP signal change, %; measured here: RFP expression control read;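 0 = vehicle wells; hits needed this value within 50% of zero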
Starred values were filed as active, the others as inactive; i = inactive; ? = inconclusive; nt = no result given.

SMILES | eIF4H FP inh | Yeast UUG start | PABP polyA inh | Env fusion inh | CSC inhib | Rce1 inhib | MT1-MMP act inh | MT1-MMP act inh RFP | others
COc1ccc(-c2n[nH]c(=S)nc2-c2ccc(OC)cc2)cc1 | -4 | -11 | -3 | 26 | -14 | i | 2 | 2
Cc1ccccc1CC(=O)N1CCCC(CNC(=O)c2ccc(F)cc2)C1 (configuration not stated) | -2 | -5 | 6 | 0 | -5 | i | 1 | 2
O=C(Nc1nc2ccccc2s1)C1CCCN1S(=O)(=O)c1ccc(Cl)cc1 (configuration not stated) | -7 | -11 | -8 | 4 | -11 | i | -2 | -8
COc1ccc(Cl)cc1NC(=S)NCc1ccccn1 | 1 | -11 | -8 | -13 | nt | i | 1 | 1
COC(=O)[C@@]1(Cc2ccccc2)[C@H]2C(=O)N(Cc3ccccc3)C(=O)[C@H]2[C@H]2CN=C(SCc3ccc(C#N)cc3)N21 | nt | -14 | nt | 69* | nt | nt | 4 | -5
COc1ccc(S(=O)(=O)N2CCCCCC2)cc1NC(=O)CN1C(=O)NC(C)(c2ccc(C)cc2)C1=O (configuration not stated) | nt | -19 | nt | 19 | nt | i | -6 | -5
C=CCn1c(CNc2ccc(C)cc2)nnc1SCC(=O)N/N=C/c1ccc(O)cc1 | 4 | 13 | -3 | nt | -8 | i | 3 | 1
COc1ccc(-c2ccc3ccccc3n2)cc1OC | -9 | nt | 2 | -47 | -7 | i | 2 | -1
Cc1cc(N2CCN(c3ccccn3)CC2)n2nc(C)nc2n1 | nt | -1 | nt | nt | 1 | i | 3 | 4
COc1ccccc1NC(=O)CCC(=O)Nc1nnc(C(F)(F)F)s1 | -3 | 3 | -4 | 21 | -9 | i | -3 | 1
O=C(COC(=O)C1CCCCC1)NCc1ccc(Cl)cc1 | nt | -2 | nt | nt | -13 | nt | 2 | 5
C#CCOCCOCCOCCNc1nc(N2CCN(C(=O)CCCCCCCCCCNC(=O)[C@@H](CCC(=O)O)n3cc(CCCCCN)nn3)CC2)nc(N2CCN(C(=O)CCCCCCCCCCNC(=O)[C@H](CCCCN)n3cc(C[C@@H](C)CC)nn3)CC2)n1 | nt | 16 | nt | nt | 3 | nt | 5 | 7

An excerpt from further up:
SMILES | eIF4H FP inh | Yeast UUG start | PABP polyA inh | Env fusion inh | CSC inhib | Rce1 inhib | MT1-MMP act inh | MT1-MMP act inh RFP | others
COc1ccc(-c2n[nH]c(=S)nc2-c2ccc(OC)cc2)cc1 | -4 | -11 | -3 | 26 | -14 | i | 2 | 2
Cc1ccccc1CC(=O)N1CCCC(CNC(=O)c2ccc(F)cc2)C1 (configuration not stated) | -2 | -5 | 6 | 0 | -5 | i | 1 | 2
O=C(Nc1nc2ccccc2s1)C1CCCN1S(=O)(=O)c1ccc(Cl)cc1 (configuration not stated) | -7 | -11 | -8 | 4 | -11 | i | -2 | -8
COc1ccc(Cl)cc1NC(=S)NCc1ccccn1 | 1 | -11 | -8 | -13 | nt | i | 1 | 1
COC(=O)[C@@]1(Cc2ccccc2)[C@H]2C(=O)N(Cc3ccccc3)C(=O)[C@H]2[C@H]2CN=C(SCc3ccc(C#N)cc3)N21 | nt | -14 | nt | 69* | nt | nt | 4 | -5
COc1ccc(S(=O)(=O)N2CCCCCC2)cc1NC(=O)CN1C(=O)NC(C)(c2ccc(C)cc2)C1=O (configuration not stated) | nt | -19 | nt | 19 | nt | i | -6 | -5
C=CCn1c(CNc2ccc(C)cc2)nnc1SCC(=O)N/N=C/c1ccc(O)cc1 | 4 | 13 | -3 | nt | -8 | i | 3 | 1
COc1ccc(-c2ccc3ccccc3n2)cc1OC | -9 | nt | 2 | -47 | -7 | i | 2 | -1
Cc1cc(N2CCN(c3ccccn3)CC2)n2nc(C)nc2n1 | nt | -1 | nt | nt | 1 | i | 3 | 4

The list goes on:
SMILES | eIF4H FP inh | Yeast UUG start | PABP polyA inh | Env fusion inh | CSC inhib | Rce1 inhib | MT1-MMP act inh | MT1-MMP act inh RFP | others
CC1(C2CC2)NC(=O)N(CC(=O)Nc2ccccc2F)C1=O (configuration not stated) | nt | -10 | nt | -10 | nt | nt | 3 | 1
O=C(COC(=O)Cc1ccccc1F)NCc1ccccc1Cl | nt | -15 | nt | 43 | nt | nt | -2 | 0
Cc1ccc2nc3c(nc2c1)-c1ccccc1C3=O | 10 | -19 | 11 | i | -2 | i | 1 | 7
CC(C)Nc1nc(NC(C)C)nc(C(N)=O)n1 | 2 | -26 | 7 | -39 | -4 | i | 4 | 3
CC(=O)NC(NC(=S)Nc1ccc(N=Nc2ccccc2C)cc1C)C(Cl)(Cl)Cl (configuration not stated) | -2 | -16 | 8 | -111 | 56 | i | -5 | -9
CCCCCn1c(=O)[nH]c2cc(C(=O)N3CCN(c4ccc(C(C)=O)cc4)CC3)ccc2c1=O | -5 | -19 | 3 | 9 | -15 | i | 5 | -28
CC(C)CCN1CC(=O)N2Cc3[nH]c4ccccc4c3C[C@H]2C1=O | -2 | -8 | -6 | 5 | -2 | i | 0 | -1
CSc1nsc(SC)c1NC(=O)N1CCCCC1 | 8 | nt | -1 | nt | -13 | i | 2 | 0
O=C(CCn1cnc(-c2ccccc2)c1-c1ccccc1)N/N=C/c1ccc(O)cc1 | 3 | -17 | 8 | 28 | -8 | i | -5 | -10
Cc1nnn(-c2nonc2N)c1C(=O)N/N=C/c1ccccc1O | -5 | nt | -17 | -28 | 24 | i | 2 | -5
C[C@@H](NC(=O)c1[nH]cnc1C(=O)Nc1ccon1)c1ccccc1 | nt | -15 | nt | -30 | 29 | nt | 3 | -4
CC1Cn2c(nnc2-c2cccs2)S1 (configuration not stated) | nt | -12 | nt | nt | -11 | i | 3 | 4
CN(C)N=Nc1ccc(S(=O)(=O)/N=C(\O)c2ccccc2)cc1 | -15 | -13 | -4 | 5 | -6 | i | 2 | 2
O=C(Cn1cnc2c(nnn2Cc2ccc(F)cc2)c1=O)NCC1CCCO1 (configuration not stated) | 0 | 0 | 48 | -1 | 0 | i | 7 | 6
CC1=C([N+](=O)[O-])C(c2ccc(Cl)cc2)NC(=O)N1C (configuration not stated) | -8 | -26 | 12 | 12 | -14 | nt | 0 | 1
O=C(CN(C(=O)c1csnn1)c1ccc(Br)cc1)NC1CCCC1 | -2 | 9 | -9 | 2 | -1 | i | 0 | 2
CCOc1ccccc1NC(=O)N1CCCC1C(=O)NCc1cccs1 (configuration not stated) | 3 | 11 | 9 | 1 | -5 | i | 4 | 4
CCC(=O)Nc1cc(Cl)ccc1N1CCN(C(=O)CC)CC1 | -10 | -4 | -3 | nt | -4 | i | 2 | -2
COc1cc(SC)ccc1C(=O)Nc1ccc(Br)cn1 | -5 | -63 | -4 | -11 | -4 | i | -1 | -5
O=C(COC(=O)/C=C/c1ccccc1[N+](=O)[O-])Nc1ccc2[nH]c(=O)[nH]c2c1 | nt | -8 | nt | -3 | -17 | nt | 3 | 4
COc1cc(N)ccc1NC(=O)c1cccs1 | -3 | -14 | 4 | nt | -6 | i | 6 | 5
NC(=O)C1CCN(C(=O)COc2ccc(S(=O)(=O)NC3CCCC3)cc2)CC1 | -1 | -8 | -16 | 8 | -14 | i | 3 | 4
COc1ccc(C(C)=O)cc1CSc1nnc(C)n1-c1ccccc1 | -4 | -9 | 4 | -22 | -8 | i | -2 | 1
COC(=O)/C=C1\SC(=Nc2ccc(Cl)c(Cl)c2)NC1=O | 10 | nt | -6 | 2 | nt | i | -1 | -1
CCCCNC(=O)Nc1nnc(SCC(=O)OCC)s1 | -8 | nt | 1 | 0 | -7 | i | 1 | 6
O=C(N/N=C/C=C\c1ccccc1[N+](=O)[O-])c1cc(-c2ccccc2)nc2ccccc12 | 1 | -5 | -4 | 2 | 28 | i | 2 | -10
Nc1cc(Cl)c(N)cc1Cl | -4 | 6 | 2 | -114 | -14 | i | -1 | 3
CCOC(=O)N1CCN(C(=O)c2ccccc2Oc2ccccc2)CC1 | -6 | -7 | -4 | nt | -3 | i | 2 | 2
O=C(c1ccccc1)C(C(=O)N1CCc2ccccc2C1)n1ccccc1=O (configuration not stated) | 74 | 1 | -15 | 8 | -5 | i | 4 | 1 | eIF4H FP inh retest=8;PABP polyA inh retest=48
Cc1ccc(S(=O)(=O)N(CC(=O)Nc2cccc(C(F)(F)F)c2)C(=O)N2CCN(C)CC2)cc1 | nt | -4 | nt | -1 | 0 | i | -3 | 2
O=C(O)C(c1ccccc1)N1C(=O)/C(=C\c2ccc(-c3ccccc3Cl)o2)SC1=S (configuration not stated) | ? | 1 | ? | -8 | nt | i | -21 | 2
Cc1ccnc(N2C(=O)c3ccccc3C2Nc2ccccc2Cl)c1 (configuration not stated) | -5 | 5 | 26 | -17 | 3 | i | 7 | 2
O=C(NCCCCc1ccccc1)c1cccc([N+](=O)[O-])c1 | 1 | nt | 4 | 10 | -6 | i | 2 | -3
Cc1cc(C)n(S(=O)(=O)c2ccccc2[N+](=O)[O-])n1 | 7 | -6 | 11 | -9 | -9 | i | -1 | 3
COc1ccc(C)cc1NC(=O)Cn1c(=O)oc2ccccc21 | -19 | -1 | -6 | -2 | -13 | i | -4 | -3
CCCCN(C(=O)CNC(=O)c1cccs1)C(C(=O)NC1CCCC1)c1ccncc1 (configuration not stated) | -1 | -1 | -4 | 13 | -1 | i | -1 | 2
Cc1ccc2c(c1)N(CCCC(=O)NCc1ccc3c(c1)OCO3)C(=O)CO2 | -4 | -26 | 7 | -16 | 13 | i | -2 | -1
CC(=O)N=c1sccn1CC(O)c1ccc(Br)cc1 (configuration not stated) | -3 | -14 | 11 | -28 | -14 | i | 4 | 1
CNC(=O)C(C#N)(Cc1cc(C(C)=O)ccc1OC)Cc1cc(C(C)=O)ccc1OC | 2 | -12 | -3 | -4 | -7 | i | -4 | 0
C=CCOc1cccc(C2C(C(=O)c3ccco3)=C(O)C(=O)N2Cc2ccco2)c1 (configuration not stated) | -4 | -27 | 6 | -5 | nt | i | -2 | 2
COc1ccc2c(c1)C(c1ccc(N3CCOCC3)cc1)=NNC(c1cccnc1)=N2 | 8 | nt | -1 | 0 | -8 | i | 2 | 4
Cc1ccc(/C([O-])=C(/C(=S)NCc2ccc3c(c2)OCO3)[n+]2ccc(N(C)C)cc2)c(C)c1 | -10 | nt | -7 | -8 | -3 | i | -1 | 0
COc1ccccc1NC(=O)c1cccc(S(=O)(=O)N2CCN(Cc3ccccc3)CC2)c1 | nt | nt | nt | 4 | -10 | i | -5 | -4
CNC(CC(=O)c1ccc([N+](=O)[O-])cc1)C(Cl)(Cl)Cl (configuration not stated) | -9 | nt | -11 | nt | 76* | nt | 1 | -3
CCCCCCCNC(=O)c1cc(-c2ccncc2)nc2ccccc12 | 4 | -13 | 12 | -32 | 10 | i | -2 | -12
O=C(Nc1ccccc1Cl)N1CCN(c2ncccn2)CC1 | -12 | -15 | -1 | nt | -10 | i | 2 | 4
C[n+]1ccc(C(=O)NCCC[N+](C)(C)C)cc1/C=N/O | -8 | nt | -2 | -2 | -9 | i | -2 | 2
COc1ccccc1N=Nc1ccc(O)c2ncccc12 | 51 | -17 | 32 | 8 | 27 | i | 6 | -7 | eIF4H FP inh retest=23;PABP polyA inh retest=31
